ugtP null kill: kills S. aureus RN4220 lacking UgtP | S. aureus RN4220 ugtP deletion, OD600 growth, 16 h; some inactives read as strong as hits | growth inhibition, % (no concentration beside the values) | actives 0.54% (n = 330,000) | AID 1259309;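 active = z-score under -3 and OD600 up to 0.15 on both plates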;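 also: plate controls were untreated wells for no effect and antibiotic for full effect; wells of about 80 µL received 100 nL stock; the first replicate is given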
Autofluor counter: compound fluorescence in toxin protease inhibitor counterscreen; compound autofluorescence counterscreen, microsphere flow cytometry; hits give high values; fluorescence intensity (concentration not given with the values); actives 3.1% (n = 360,000); AID 624483;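 active = at least 3 SD above the mean of all compounds, about 16000 in these data; inconclusive = too few beads counted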;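 also: 100 nL of 1 mM stock went into each well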
Sa RN4220 lethal: S. aureus RN4220 growth inhibition; OD600, 16 h; AID 1259311; actives 0.33% (n = 330,000); inhibition, % (no concentration beside the values);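 active = z-score of -3 or lower and OD600 up to 0.18 on both plates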;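 also: plate controls were untreated cells for no effect and reference antibiotic for full effect; stock transfer was 100 nL into about 80 µL; one replicate is shown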
Mtb hypoxia rep: inhibitors of hypoxia-regulated fluorescent reporter in Mycobacterium tuberculosis; M. tuberculosis hypoxia-regulated fluorescent reporter, fluorescence; fluorescence inhibition, % (test concentration not listed); actives 0.1% (n = 300,000);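 active = 35 to 45% if threefold the growth effect, above 45% if 1.5-fold the growth effect; inactive = the rest, general growth blockers included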;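 also: wells of about 50 µL received 100 nL stock; 0% = vehicle wells and 100% = reference inhibitor wells; whole bacteria with a GFP reporter of the hypoxia response; strong numbers were not always called active; many hits fall short of the cut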
BJeLR viability: kills HRASV12-expressing BJeLR cells; BJeLR (HRASV12) viability, CellTiter-Glo ATP luminescence, 48 h; reference of the scale not given here; inhibition, % (concentration not given with the values); actives 0.17% (n = 300,000);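 active = replicate mean above 50%; inconclusive = above 50% but judged a plate artefact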;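 also: 50 nL library stock added to about 25 µL; numbers are from one replicate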
PrP 5UTR inh: suppresses PrP 5' UTR mRNA reporter expression. cell-based PrP 5' UTR mRNA reporter, plate reader. AID 488862. actives 0.35% (n = 340,000). inhibition, % (no concentration beside the values);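 active = every replicate at 50% or more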;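 also: 0 = median of the neutral control wells; tested in H4 reporter cells; numbers are from one replicate; inactives centre near -14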
Mtb hypoxia rep growth: further read-out of Mtb hypoxia rep, marked with its call; growth inhibition, %; measured here: M. tuberculosis growth (absorbance);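 0% = vehicle and 100% = reference antibiotic; read after six days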
Starred values were filed as active, the others as inactive; ? = inconclusive; / = not tested or not shown. The order is random; overall some 4% were active at least once.

No. | Structure | ugtP null kill | Autofluor counter | Sa RN4220 lethal | Mtb hypoxia rep | Mtb hypoxia rep growth | BJeLR viability | PrP 5UTR inh
1 | O=C(CSCc1ccccc1)N1CCN(c2cccc(C(F)(F)F)c2)CC1 | -22 | 3278 | -1.1 | -2 | 9 | 13 | -33
2 | CCN(CC)C(=O)c1c(NC(=O)c2ccccc2)sc(C)c1C | 5 | 2285 | 1.4 | / | / | 8 | -14
3 | CCC(=O)Nc1nc2nc(C)cc(=O)n2[nH]1 | / | 2457 | / | / | / | 2 | -2
4 | NCCc1ccc(OCc2ccccc2)c(OCc2ccccc2)c1 | -7 | 2882 | -6.3 | 5 | 9 | / | 21
5 | N#C/C(=C/c1ccccc1[N+](=O)[O-])c1nc(C2CC2)cs1 | -8 | 2009 | 6.5 | 0 | 6 | 5 | -63
6 | CCOC(=O)C1CCN(C(=O)COc2ccc(Br)cc2)CC1 | -11 | 9045 | 8.2 | -1 | 10 | 1 | -25
7 | Cc1noc(C)c1NC(=O)N(C)C[C@H]1Oc2ccc(NC(=O)Nc3ccc(C(F)(F)F)cc3)cc2C(=O)N([C@H](C)CO)C[C@@H]1C | -4 | 3333 | -15 | 8 | 5 | / | -35
8 | CCCCN(CC)CCNC(=O)c1cc2c(-c3ccc(Cl)cc3)nn(C)c2s1 | / | 4642 | / | / | / | 7 | -2
9 | CC(Oc1cc(-c2ccccc2)cc2ccccc12)C(=O)N1CCOCC1 (stereo unspecified) | -10 | 9147 | -0.5 | 8 | 9 | 0 | -15
10 | O=c1c2c(n3cnnc3n1-c1ccccc1)-c1ccccc1CC21CCCCC1 | -10 | 3009 | -11 | 12 | 3 | -1 | -7
11 | Cc1ccc(N2CCN(C(=O)c3ccccc3)CC2)c(C)c1 | -1 | 4124 | 2.2 | 0 | 3 | 16 | 0
12 | Cc1ccc(-c2noc(CCCC(=O)N3CCOCC3)n2)cc1 | -2 | 20543* | 7.8 | 7 | 4 | 5 | -9
13 | CCOc1ccc(C(=S)N2CCOCC2)cc1OCC | 5 | 23260* | 6.2 | 0 | 5 | 1 | -12
14 | CCOc1ccc(-c2nnc(SCC(=O)Nc3cc(C)on3)o2)cc1 | -3 | 4264 | 3.5 | 12 | 5 | -8 | -16
15 | CCC(C)C(NC(=O)OC1C(=O)c2cc(OC)ccc2OC1c1ccc(OC)c(Br)c1)C(=O)OC (stereo unspecified) | 27 | / | 3.9 | -1 | 2 | / | /
16 | CC(C)OC(=O)Nc1ccc2c(c1)N(C(=O)CCN1CCOCC1)c1ccccc1CC2 | 2 | 4542 | 3.1 | 2 | 7 | 4 | -2
17 | COc1ccccc1NC(=O)c1cc2c(CO)cnc(C)c2oc1=Nc1ccccc1 | 7 | 3086 | 1.1 | 0 | 13 | 4 | -4
18 | CCN(C(=O)COC(=O)CCCOc1ccccc1)c1c(N)n(Cc2ccccc2)c(=O)[nH]c1=O | -4 | ? | -0.4 | -4 | -5 | / | -2
19 | Cc1cccc(N/N=C(\C(N)=O)C2=NC(C)(C)Cc3ccccc32)c1 | / | 2054 | / | / | / | 20 | -66
20 | Clc1ccc(-c2csc(-c3ccno3)n2)cc1 | -4 | 4786 | 9.5 | 11 | -1 | -2 | -30
21 | CCCNC(=O)C(Cc1ccc(C(F)(F)P(=O)(OCC)OCC)cc1)NC(=O)c1ccc(C#N)cc1 (stereo unspecified) | -3 | 2922 | 5.5 | -3 | -4 | / | -20

Copied from above: nos. 10 to 21
No. | Structure | ugtP null kill | Autofluor counter | Sa RN4220 lethal | Mtb hypoxia rep | Mtb hypoxia rep growth | BJeLR viability | PrP 5UTR inh
10 | O=c1c2c(n3cnnc3n1-c1ccccc1)-c1ccccc1CC21CCCCC1 | -10 | 3009 | -11 | 12 | 3 | -1 | -7
11 | Cc1ccc(N2CCN(C(=O)c3ccccc3)CC2)c(C)c1 | -1 | 4124 | 2.2 | 0 | 3 | 16 | 0
12 | Cc1ccc(-c2noc(CCCC(=O)N3CCOCC3)n2)cc1 | -2 | 20543* | 7.8 | 7 | 4 | 5 | -9
13 | CCOc1ccc(C(=S)N2CCOCC2)cc1OCC | 5 | 23260* | 6.2 | 0 | 5 | 1 | -12
14 | CCOc1ccc(-c2nnc(SCC(=O)Nc3cc(C)on3)o2)cc1 | -3 | 4264 | 3.5 | 12 | 5 | -8 | -16
15 | CCC(C)C(NC(=O)OC1C(=O)c2cc(OC)ccc2OC1c1ccc(OC)c(Br)c1)C(=O)OC (stereo unspecified) | 27 | / | 3.9 | -1 | 2 | / | /
16 | CC(C)OC(=O)Nc1ccc2c(c1)N(C(=O)CCN1CCOCC1)c1ccccc1CC2 | 2 | 4542 | 3.1 | 2 | 7 | 4 | -2
17 | COc1ccccc1NC(=O)c1cc2c(CO)cnc(C)c2oc1=Nc1ccccc1 | 7 | 3086 | 1.1 | 0 | 13 | 4 | -4
18 | CCN(C(=O)COC(=O)CCCOc1ccccc1)c1c(N)n(Cc2ccccc2)c(=O)[nH]c1=O | -4 | ? | -0.4 | -4 | -5 | / | -2
19 | Cc1cccc(N/N=C(\C(N)=O)C2=NC(C)(C)Cc3ccccc32)c1 | / | 2054 | / | / | / | 20 | -66
20 | Clc1ccc(-c2csc(-c3ccno3)n2)cc1 | -4 | 4786 | 9.5 | 11 | -1 | -2 | -30
21 | CCCNC(=O)C(Cc1ccc(C(F)(F)P(=O)(OCC)OCC)cc1)NC(=O)c1ccc(C#N)cc1 (stereo unspecified) | -3 | 2922 | 5.5 | -3 | -4 | / | -20
